Source: PubChem BioAssay
HCMV UL50-53 inh: cytomegalovirus nuclear egress complex inhibition. HTRF UL50-UL53 interaction, normalized percent inhibition. inhibition, % (test concentration not listed). 0.15% of 190,000 active;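 active means both replicates at 50% or more, plus weaker picks with an unusually low signal ratio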;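 further: stock transfer was 100 nL into about 20 µL; 0% = negative control wells and 100% = wells with untagged competitor protein; inactives centre near -12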
Sa growth inh: blocks Staphylococcus aureus growth. relative growth, % (no concentration beside the values). S. aureus RN4220 growth, OD600, 20 h, 42 °C; stronger effect = lower value. 0.53% of 170,000 active;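 active means growth at 42 °C up to 50% and 20 or more points under that at 30 °C, or under 10% at both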;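 further: 300 nL library stock went into each well; scaled to the means of positive and negative controls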
GIV Gai3 FP: inhibitors of GIV GBA-motif binding to rat Galpha-i3; P08753; Galpha-i3/FITC-GIV peptide fluorescence polarization, 90 min; stronger effect = lower value; scaled: aluminum fluoride 0%, vehicle 100%; percent of control (FP), % (no concentration beside the values); 0.42% of 210,000 active;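 active means replicate mean at 85% of control or lower, very high polarization wells dropped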;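 further: wells of about 15 µL received 100 nL stock; the first replicate is given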
Target sequence (P08753 whole entry, looked up): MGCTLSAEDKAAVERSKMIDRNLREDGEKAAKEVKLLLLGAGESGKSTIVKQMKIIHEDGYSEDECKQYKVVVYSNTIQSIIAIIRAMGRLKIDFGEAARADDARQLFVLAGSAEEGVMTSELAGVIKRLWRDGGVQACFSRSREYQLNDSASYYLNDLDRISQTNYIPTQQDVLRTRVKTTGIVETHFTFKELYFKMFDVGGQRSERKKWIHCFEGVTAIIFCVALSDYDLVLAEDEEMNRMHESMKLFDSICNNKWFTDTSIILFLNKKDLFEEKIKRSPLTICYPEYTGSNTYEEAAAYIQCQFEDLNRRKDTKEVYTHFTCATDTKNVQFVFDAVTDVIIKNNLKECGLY
Sa growth inh second temp: further read-out of Sa growth inh, marked with its call; relative growth, %; measured here: growth at 30 °C;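 optical density after 20 h as mean of two plates; 100% = untreated growth and lower means inhibition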
Numbers without * were called inactive; nt = no result given; & = joins results of further samples.

SMILES	HCMV UL50-53 inh	Sa growth inh	Sa growth inh second temp	GIV Gai3 FP
CC1CCCC(NC(=O)CN(C)S(=O)(=O)c2cnc[nH]2)C1C (stereo unspecified)	4	93	85	110
COc1ccc(OC)c(NC(=O)C2C3C=CC(C3)C2C(=O)NCc2cccnc2)c1 (stereo unspecified)	-4	65	110	106
Cc1ccc(N(C(=O)c2cccc(F)c2)C2C=CS(=O)(=O)C2)cc1 (stereo unspecified)	-19	99	90	101
Cc1cccc(CNC(=O)CCCN2C(=O)c3cccnc3Oc3ccccc32)c1	8	107	97	104&100
Cc1cc2nc(CSc3nc4ccc(NC(=O)Nc5cccc(F)c5)cc4s3)cc(=O)n2o1	-15	nt	nt	98
COc1cc([N+](=O)[O-])ccc1N=Cc1nc(-c2ccc(Br)cc2)oc1O	-23	nt	nt	108
NS(=O)(=O)c1ccc(CCNC(=O)c2ccccc2C(F)(F)F)cc1	12	90	90	nt
COC(=O)CN1C(=O)COc2ccc(C)cc21	-3	95	84	nt
CCc1cccc(C)c1NC(=O)N(Cc1ccccc1)C(C)C	30	115	100	103
CCOC(=O)C1=NNC2C(=O)NC(=O)C12 (stereo unspecified)	-19	98	99	106
CN1CCN(c2nc(-c3ccccc3)c3cc(Cl)ccc3n2)CC1	-22	nt	nt	104
O=C(c1ccc2ccccc2n1)N1CCOCC1	-19	92	86	103
CCCCN(C)C(=O)C(Cc1ccccc1)NS(=O)(=O)c1ccc2c(c1)c(=O)n(C)c(=O)n2C (stereo unspecified)	12	102	100	108
Cc1ccc(/C(O)=C/c2nc3ccccc3[nH]c2=O)cc1C	nt	100	90	163
O=C(Nc1ccccc1C(=O)N1CCCCCC1)c1cccc(S(=O)(=O)N2CCCCCC2)c1	nt	90	97	99
O=C(CC(c1ccccc1)c1ccccc1)Nc1ncn[nH]1	-4	112	96	nt
CC(C)NC(=S)Nc1ccccn1	-13	120	95	nt
Cc1ccc(-n2nc(N3CCN(C(=O)C(C)N4C(=O)COc5ccccc54)CC3)ccc2=O)cc1C (stereo unspecified)	-48	nt	nt	102
CC(=O)Nc1cccc(-c2nnc3n2CC(C)S3)c1 (stereo unspecified)	-5	102	99	105
OC(c1cccc(OCc2ccccc2)c1)c1nnc(-c2ccccc2)o1 (stereo unspecified)	-16	97	87	nt
CCOC(=O)c1c(C)oc2ncnc(N3CCOCC3)c12	-37	106	91	104
O=S(=O)(CCN1CCN(Cc2ccccc2)CC1)c1ccc(Cl)cc1	-5	92	90	91
Cc1cc2c(=O)n(CC(=O)Nc3ccccc3)cnc2s1	-6	105	108	114
Cn1c(=O)oc2cc(S(=O)(=O)NC(CC(=O)O)c3cccc(Br)c3)ccc21 (stereo unspecified)	nt	100	93	101
COc1ccc(CN2CC(C(=O)NCCc3ccccc3)CC2=O)cc1 (stereo unspecified)	1	89	93	100

An excerpt from above in order of their number in Sa growth inh, lowest first:
compound | Sa growth inh
Cc1ccc(N(C(=O)c2cccc(F)c2)C2C=CS(=O)(=O)C2)cc1 (stereo unspecified) | 99
Cc1ccc(/C(O)=C/c2nc3ccccc3[nH]c2=O)cc1C | 100
CC(=O)Nc1cccc(-c2nnc3n2CC(C)S3)c1 (stereo unspecified) | 102
Cc1cc2c(=O)n(CC(=O)Nc3ccccc3)cnc2s1 | 105
CCOC(=O)c1c(C)oc2ncnc(N3CCOCC3)c12 | 106
Cc1cccc(CNC(=O)CCCN2C(=O)c3cccnc3Oc3ccccc32)c1 | 107

Further structures follow:
SMILES	HCMV UL50-53 inh	Sa growth inh	Sa growth inh second temp	GIV Gai3 FP
O=C(CSCc1c[nH]c2ccccc12)Nc1ccc2ccccc2c1	2	145	77	nt
COc1ccccc1CN1CCN(C2CCN(C(=O)NC3CCCCC3)CC2)C(=O)C1=O	1	nt	nt	97
CCNc1nc(NCC)nc(C(N)=O)n1	3	108	100	102
CCOc1ccc(C(=O)Nc2cc3c(cc2N2CCCC2)n(C)c(=O)c(=O)n3C)cc1OCC	-17	115	82	104
COC(=O)CC1Oc2ccc(Cl)cc2-n2cc(-c3ccc(F)cc3)nc21 (stereo unspecified)	11	85	94	101
CCOC(=O)c1cc(S(=O)(=O)Nc2ccccc2)[nH]n1	nt	86	85	109
c1ccc(C2=NC3(CCCC3)N=C2c2ccccc2)cc1	nt	89	90	106
C=CCNc1cc(C(C)C)nc2nc(-c3cccnc3)nn12	-2	nt	nt	107
COc1ccc(N=Cc2ccccc2F)cc1	40	96	102	nt
SCCCCOc1ccccc1Br	-10	110	85	104
N/C(=N\OC(=O)Nc1ccccc1)c1ccno1	-8	108	100	106
CCn1c(=O)n(CC(=O)O)c(=O)c2cnc(-c3ccc(Cl)cc3)nc21	5	nt	nt	99
Cn1nnnc1SCC(=O)NC1CC1	-16	98	92	nt
COc1cccc(N2CCN(S(=O)(=O)c3ccc4c(c3)N(C(C)=O)CCO4)CC2)c1	-24&-10	89	85	103&108
CC1=C(C(=O)OCCOc2ccccc2)C(c2cccnc2)C2=C(CC(c3ccc(Cl)cc3)CC2=O)N1 (stereo unspecified)	-28	nt	nt	101
CSc1ccccc1NC(=O)CN(C)C(=O)c1ccc(S(=O)(=O)N(C)C)cc1	-43	111	93	nt
O=C(CN1CC(=O)Oc2ccccc21)Nc1ccc(O)cc1	nt	90	97	105
NNC(=O)Cc1nn2c(C3CCCCC3)nnc2s1	18	101	97	nt
Cn1cc(S(=O)(=O)N2CCCCC2)cc1C(=O)NCc1ccc(Cl)cc1	nt	110	88	98
CSc1ccc(CNC(=O)c2ccc(NC(=O)c3nsc4ccccc34)cc2)cc1	nt	135	81	107
COc1ccc(S(=O)(=O)Nc2cc3c(cc2NCc2ccccc2)n(C)c(=O)n3C)cc1	-7	92	70	105
COc1cccc(C(=O)N2CCc3c(c(C(=O)NCc4ccccc4)nn3C)C2)c1	-18	nt	nt	104
CCNc1nc(N)nc(Sc2ccc(C(=O)OC)cc2)n1	-5	102	79	104
COc1ccc(C2(NC(=O)c3ccc(Cn4cc(Cl)cn4)o3)CCCCC2)cc1	-3	105	69	98
Fc1ccc(N=Cc2ccsc2)cc1F	-19	120	79	nt

Reformatted field by field: part of the list above.
compound: Cn1nnnc1SCC(=O)NC1CC1
  HCMV UL50-53 inh: -16
  Sa growth inh: 98
  Sa growth inh second temp: 92
  GIV Gai3 FP: nt
compound: COc1cccc(N2CCN(S(=O)(=O)c3ccc4c(c3)N(C(C)=O)CCO4)CC2)c1
  HCMV UL50-53 inh: -24&-10
  Sa growth inh: 89
  Sa growth inh second temp: 85
  GIV Gai3 FP: 103&108
compound: CC1=C(C(=O)OCCOc2ccccc2)C(c2cccnc2)C2=C(CC(c3ccc(Cl)cc3)CC2=O)N1 (stereo unspecified)
  HCMV UL50-53 inh: -28
  Sa growth inh: nt
  Sa growth inh second temp: nt
  GIV Gai3 FP: 101

(next part)
SMILES	HCMV UL50-53 inh	Sa growth inh	Sa growth inh second temp	GIV Gai3 FP
CCOC(=O)c1c(C)[nH]c(C)c1S(=O)(=O)N(C)CC(=O)N1CCN(c2cccc(Cl)c2)CC1	nt	62	60	99
CC(=O)OCC(=O)[C@@]1(O)CCC2C3CCC4=CC(=O)CC[C@]4(C)[C@@]3(F)[C@@H](O)C[C@@]21C (stereo partly specified)	-18	86	84	nt
O=c1c(Oc2ccccc2Br)c(C(F)(F)F)oc2c(CN3CCOCC3)c(O)ccc12	0	nt	nt	105
CCOC(=O)C(=O)c1c(O)[nH]c2ccccc12	-28	86	81	101
CCC(=O)c1ccccc1OCCCn1cnc2ccccc2c1=O	-25	101	76	109
c1ccc(-n2cc(-c3nc4ccccc4[nH]3)c(-c3ccco3)n2)cc1	23	46	51	nt
Cc1cccc(N2CCN(CCNC(=O)Nc3ccc(Cl)cc3)CC2)c1C	-8	114	94	107
COc1ccccc1C(=O)N1CCC(c2nc3ccccc3o2)CC1	-23	nt	nt	113
Clc1ncnc2ccsc12	3	88	99	nt
O=C(c1cnn2c(C(F)F)cc(C3CC3)nc12)N1CCCC1c1cccc(F)c1 (stereo unspecified)	10	nt	nt	108
O=C(Nc1ccccn1)c1cc2ccc3cccnc3c2[nH]1	-9	nt	nt	98
CCCSc1nnc2c3ccccc3n(Cc3ccccc3)c2n1	-6	99	82	nt
Cc1ccc(-n2nc(C)c3nc(CCC(=O)NC4CCCCC4)c(=O)n(C)c32)cc1	-42	nt	nt	104
CCN(CC)c1ccc(NC(=O)Cn2nc3c(cc2=O)CCCC3)c(C)c1	nt	113	86	100
O=C(COC(=O)c1ccc(CN2CCCC2=O)cc1)Nc1ccc(F)cc1	2	101	99	nt
CCOC(=O)c1ccc(-n2c(CCC(=O)O)ccc2-c2ccccc2)cc1	nt	71	79	97
CN1CCN(S(=O)(=O)c2ccc(C(N)=O)cc2)CC1	-36	98	98	102
O=C(Nc1ccc(F)cc1F)c1nc(Nc2ccccc2)c2ccccc2n1	-12	nt	nt	99
CC(=O)OCCNc1ccc2noc3c2c1C(=O)c1ccccc1-3	-18	76	84	104
COc1cccc(NC(=O)CN(C)C(=O)C2CC3C=CC2C3)c1 (stereo unspecified)	19	89	105	nt
CCCCSc1nc(-c2cccc(OC)c2)nc2c1Cc1c(CO)cnc(C)c1O2	nt	118	105	103
O=C(NC1CCN(C(=S)NCc2ccco2)CC1)NC12CC3CC(CC(C3)C1)C2	-5	88	96	100
CCOc1ccc(NC(=O)Cn2ccc3c(OCC(=O)OC)cccc3c2=O)cc1	-27	94	92	99
CCOC(=O)C1CCN(c2cc(NCC(C)C)c3c4c(onc24)-c2ccccc2C3=O)CC1	-40	nt	nt	247
COc1ccc(-c2c(C)nn3c(N4CCN(c5ccccn5)CC4)cc(C)nc23)cc1OC	1	84	85	102

(list continues)
SMILES	HCMV UL50-53 inh	Sa growth inh	Sa growth inh second temp	GIV Gai3 FP
CC(C)(C)OC(=O)N1CCC(c2nnc(SCc3cccc(Cl)c3)o2)CC1	1	88	75	103
COC(=O)c1ccc(-n2c(C)cc(C=C3C(=O)N(C)C(=S)N(C)C3=O)c2C)c(C)c1	-17	nt	nt	110
O=C(O)C1=NN(c2ccccc2)C(=O)C1	-37	95	103	102
N#C/C(=C\c1ccsc1)S(=O)(=O)c1ccc(F)cc1	-32	100	81	nt
CCC/C=C/C(=O)Nc1ccc(C)cc1	-1	86	91	nt
COc1ccc(-c2nc(-c3ccc4c(c3)[nH]c(=O)c(=O)n4C)no2)cc1OC	4	nt	nt	86
O=C(O)/C=C/c1ccc(N2C(=O)CC(Cc3ccccc3)C2=O)cc1 (stereo unspecified)	nt	68	81	108
Cc1ccc(Cl)cc1N1CCN(C(=O)c2ccc3c(c2)CCN3S(=O)(=O)c2ccccc2)CC1	-15	98	87	104
Cn1c(NC(=O)c2cc(F)c(F)cc2Cl)nc2ccccc21	-23	98	88	nt
CCOC(=O)N1CCN(CC(O)COc2cc(C)cc(C)c2)CC1 (stereo unspecified)	-11	93	88	101
Cc1ccc(C)c(-c2cc(-c3nc(-c4ccc(Br)cc4)no3)[nH]n2)c1	-6	nt	nt	107
CSc1ncc(C(=O)NCc2ccco2)c(C(F)(F)F)n1	-12	101	92	110
Cc1nc(COC(=O)c2c(C)nn(-c3ccccc3)c2C)cs1	-6	104	91	nt
Cc1ccc(-n2nc(C(F)(F)F)cc2-c2cccs2)cc1	-13	99	95	107
Cn1c(=O)c2sccc2n2c(CCCC(=O)NCCc3ccc(Cl)cc3)nnc12	-27	98	91	96
CCn1c(CN2CCC(C)CC2)nc2cc(NC(=O)c3ccc([N+](=O)[O-])cc3)ccc21	-30	113	90	106
Nc1ncc(C2(O)C(=O)Nc3c(Br)cc(F)cc32)s1 (stereo unspecified)	-38	82	87	nt
CCOC(=O)C1CCN(C2CC(=O)N(c3ccc(NC(C)=O)cc3)C2=O)CC1 (stereo unspecified)	-19	81	92	101
C=CCn1c(O)c(C2=c3ccccc3=NC2=O)sc1=S	nt	92	76	103
Cc1ccc2oc(=O)c3cc(C(=O)NCCN4CCN(C)CC4)sc3c2c1	-33	91	88	105
CCSc1nnc(NC(=O)CN2C(=O)C3CC=CCC3C2=O)s1 (stereo unspecified)	-16	105	83	nt
CCc1ccc(CN(C)C(=O)c2ccc3c(c2)OCO3)cc1	-8	96	97	nt
COc1ccc(CNc2nc(-c3ccc(Cl)cc3)nn2C(=O)c2ccccc2)cc1	-19	98	93	101
Cc1cc(C)n(-c2ccc(SCc3ccc(Cl)cc3)nn2)n1	0	104	90	100
C=CCOc1c(OC)cccc1C1CC(=O)Nc2c1c(C)nn2-c1ccc2nncn2n1 (stereo unspecified)	-37	nt	nt	101

The list goes on.
SMILES	HCMV UL50-53 inh	Sa growth inh	Sa growth inh second temp	GIV Gai3 FP
CCn1nc(C)c2c(-c3ccccc3)cc(=O)n(C(C)C(=O)NCCc3ccc(Cl)cc3)c21 (stereo unspecified)	nt	96	85	100
Cc1ccc2[nH]c(C)c(CN(C)C)c(=O)c2c1	-17	95	86	106
CC1=NN(c2ccc(N)cc2)C(=O)C1	24	59	102	95
O=C(Cn1c(C(=O)N2CCN(C(=O)c3ccco3)CC2)cc2sccc21)c1ccccc1	0	120	86	100
CCCN(Cc1nnc(-c2ccccc2Cl)o1)C(=O)c1c(F)cccc1Cl	3	97	70	nt
CCOC(=O)c1ccc(-c2ccc(Cl)cc2)s1	10	98	92	102
CCOc1ccc(C(=O)Nc2ccc3c(c2)CCCN3C(C)=O)cc1OCC	0	nt	nt	100
COc1ccc(CCNS(=O)(=O)N(C)C)cc1	-4	112	106	108
Cc1nc(-c2cccc(NS(=O)(=O)c3cccs3)c2)cs1	-11	127	99	nt
CCCCN(CC)CCNC(=O)c1cn(C)c(=O)c2c1c1ccccc1n2C	-5	100	93	105
